# Assay outcomes from PubChem.
# PABP FP inh: blocks human PABP binding to poly(A) RNA | fluorescence polarization | inhibition, % at 35 µM | actives 1% (n = 290,000);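 active = 50% or more with normal probe brightness, or confirmed in later tests; inconclusive = above 50% with abnormal brightness, or retests that disagree; inactive = below 50% or failed in later tests; about a fifth of its hits are not listed in these tables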;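 note: calls also rest on retests at 20 µM and on dose response follow-up; controls were probe without protein and protein plus probe with vehicle; some compounds called inactive have numbers as strong as hits; many hits fall short of the cut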
# Target sequence (P11940 whole entry, looked up): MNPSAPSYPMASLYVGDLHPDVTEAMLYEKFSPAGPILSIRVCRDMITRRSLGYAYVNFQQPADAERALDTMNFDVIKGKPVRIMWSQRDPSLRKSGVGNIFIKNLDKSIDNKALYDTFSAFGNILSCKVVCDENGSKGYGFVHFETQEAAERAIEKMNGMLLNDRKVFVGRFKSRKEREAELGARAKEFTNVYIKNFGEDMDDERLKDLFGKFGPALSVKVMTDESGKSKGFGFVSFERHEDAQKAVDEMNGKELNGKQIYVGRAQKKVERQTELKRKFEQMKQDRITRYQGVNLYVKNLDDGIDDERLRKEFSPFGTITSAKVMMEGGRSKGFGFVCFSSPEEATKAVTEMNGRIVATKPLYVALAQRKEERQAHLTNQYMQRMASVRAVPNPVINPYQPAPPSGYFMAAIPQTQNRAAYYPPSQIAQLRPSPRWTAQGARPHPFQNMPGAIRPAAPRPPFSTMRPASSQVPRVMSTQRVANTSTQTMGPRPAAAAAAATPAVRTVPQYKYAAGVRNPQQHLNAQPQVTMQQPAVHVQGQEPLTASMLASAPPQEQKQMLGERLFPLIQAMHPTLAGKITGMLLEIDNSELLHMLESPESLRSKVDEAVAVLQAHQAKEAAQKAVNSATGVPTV
# Rce1 inh: yeast Ras-converting enzyme inhibition. Q03530. yeast membranes, quenched prenylated peptide cleavage fluorescence. calls only. actives 0.27% (n = 290,000). AID 2563;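 active = fall in fluorescence gain of 50% or more versus controls, with final raw signal at or below 3038400; inconclusive = same 50% fall but final raw signal above 3038400; inactive = fall in fluorescence gain under 50%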;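 note: plate controls were neutral control wells for no effect and wells lacking membranes for full effect; tested at 10 µM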
# Target sequence (Q03530 whole entry, looked up): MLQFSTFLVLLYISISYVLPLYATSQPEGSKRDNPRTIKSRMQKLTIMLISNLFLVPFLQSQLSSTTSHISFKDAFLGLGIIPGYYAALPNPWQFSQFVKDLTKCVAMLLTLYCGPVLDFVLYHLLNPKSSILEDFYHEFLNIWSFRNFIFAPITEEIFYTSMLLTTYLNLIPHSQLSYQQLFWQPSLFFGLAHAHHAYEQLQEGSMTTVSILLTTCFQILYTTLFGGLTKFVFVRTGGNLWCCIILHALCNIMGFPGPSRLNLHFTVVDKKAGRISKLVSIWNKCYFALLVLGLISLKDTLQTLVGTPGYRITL
# eIF4H FP inh: inhibitors of RNA binding by human eIF4H. actives 0.94% (n = 290,000). inhibition, % at 35 µM. eIF4H fluorescence polarization binding assay;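 active = 50% or more with normal probe brightness, or confirmed in later tests; inconclusive = above 50% with abnormal brightness, or retests that disagree; inactive = below 50% or failed in later tests; about a fifth of its hits are not listed in these tables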;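 note: calls also rest on retests at 20 µM and on dose response follow-up; 0% = protein and probe with vehicle and 100% = probe without protein; strong numbers were not always called active; many hits fall short of the cut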
# Yeast UUG start: modulators of start codon recognition fidelity in yeast; actives 0.13% (n = 350,000); activity score, % at 18.7 µM; S. cerevisiae UUG-firefly luciferase reporter, luminescence/redox ratio; AID 602363;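 active = replicate mean at a twofold rise or more, about +100% in these data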;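 note: firefly luciferase made from a UUG start codon reports start codon fidelity; reporter light over untreated wells divided by growth signal over untreated wells; some hits fall short of that in this replicate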
# CSC inhib: cancer stem cell inhibition; cancer stem cell-like cells viability, luminescence; inhibition, % at 7.5 µM; actives 1.1% (n = 300,000); AID 2717;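 active = mean at 75% or more and at least half the replicates too; inconclusive = mean and replicates disagree; tested in HMLE shEcad cells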;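 note: 0% = median of negative and 100% = median of positive control wells; the first replicate is given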
# MT1-MMP act inh: MT1-MMP (human) activation inhibition; HT1080 RFP-PRO-GFP cells, GFP/RFP ratio fluorescence, overnight; percent of plate control window, DMSO zero; GFP/RFP ratio change, % at 20 µM; actives 0.061% (n = 360,000);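 active = GFP/RFP ratio change of at least 30% with cell ATP level not reduced by more than half and red fluorescence within 50% of control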; note: strong numbers were not always called active
#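 Assay system: HT1080 RFP-PRO-GFP cells | Dosing: 20 µM single dose, 1% DMSO | Incubation: Cells overnight before dosing, compound overnight, 37 °C, 5% CO2 | Evaluation: GFP/RFP fluorescence ratio | Control set: DMSO-only wells and HT1080 RFP-L50D-GFP cell wells as references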
# Env fusion inh: inhibitors of HIV Env-mediated cell fusion. HeLa-JRFL Env/CEM21 cell fusion, luciferase. inhibition, % at 12.3 µM. actives 1.1% (n = 360,000). AID 651610;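 active = mean replicate inhibition score of at least 50 and every replicate individually at or above 50; inconclusive = only one of the two criteria met; inactive = mean below 50 and not all replicates reaching 50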;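 note: 0% = plate neutral controls and 100% = maraviroc near 300 nM; one replicate is shown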
# eIF4H FP inh retest: further read-out of eIF4H FP inh, marked with its call; inhibition, %; compound at 20 µM; confirmation average;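 mean of two retest wells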
# PABP FP inh retest: recorded beside PABP FP inh, whose call it bears; inhibition, %; compound at 20 µM; confirmation repeats;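 mean of two retest wells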
# MT1-MMP act inh RFP: second read-out of MT1-MMP act inh, no call of its own (marks repeat the call); RFP signal change, %; measured here: RFP expression control read;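 0 = vehicle wells; hits needed this value within 50% of zero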
# * = called active by the depositor; i = inactive; ? = inconclusive; nt = not tested or not shown.
SMILES,PABP FP inh,Rce1 inh,eIF4H FP inh,Yeast UUG start,CSC inhib,MT1-MMP act inh,MT1-MMP act inh RFP,Env fusion inh,others
COCC(=O)Nc1ncc(S(=O)(=O)c2ccc([N+](=O)[O-])cc2)s1,18.4,i,-9.5,nt,-11.7,2.9,-0.8,3.5,
COc1ccc(C2CC(c3ccc(F)cc3)Nc3nc(N)nn32)cc1 (centres undefined),-6.9,i,-3.8,-14.7,-19.7,-0.4,2.0,15.7,
CC/C(=N\NC(=O)OC)c1ccc(OC(F)F)cc1,10.6,i,-3.2,-18.8,-0.2,-0.7,6.4,14.2,
O=C(Nc1ccc(N2CCOCC2)c(S(=O)(=O)Nc2ccc(Cl)cc2)c1)c1cnccn1,3.3,i,-4.4,-16.9,1.5,1.1,-2.9,6.0,
CCc1nnc(NC(=O)CN2CCN(c3nc(-c4ccccc4)cs3)CC2)s1,3.4,i,-11.0,-22.9,-6.5,-0.6,-6.3,36.9,
CC(O)c1ccc(OCCN(C)c2ccccn2)cc1 (centres undefined),8.5,i,-2.7,-24.4,8.6,3.0,3.3,-8.9,
O=C(NCc1ccco1)c1ccc2c(c1)C(=O)N(Cc1ccccc1)C2=O,-4.4,i,0.4,-12.0,nt,-2.2,-7.6,-116.5,
CC(=O)Nc1ccc2nc(C)n(Cc3ccc(Cl)cc3)c(=O)c2c1,11.1,i,-11.8,3.7,-11.2,6.3,-3.1,nt,
O=C(CCNS(=O)(=O)c1cccc2nsnc12)NCCC1=CCCCC1,6.8,i,-3.7,-7.1,-12.8,13.5,0.7,-147.6,
CCCNc1nc2c(c(=O)n(C)c(=O)n2C)n1CCc1ccccc1,3.3,i,-7.6,-11.4,-17.1,2.3,-14.7,46.4,
CCCc1c(C(=O)N/N=C/c2sccc2C)nnn1-c1nonc1N,-4.9,i,-18.4,-18.5,-9.1,6.0,0.5,-6.7,
CC(=NCCc1c(C)[nH]c2ccc(OC(F)(F)F)cc12)C1=C(O)CC(c2ccccc2)CC1=O (centres undefined),1.2,i,3.4,nt,44.2,-12.5,-18.8,-2.1,
CCOc1cccc(-c2nnc(SCC(=O)Nc3cc(C)ccc3OC)n2N)c1,1.5,i,3.6,-14.5,10.0,27.4,15.5,-15.1,
CCOC(=O)c1cnc(SC2CC(=O)N(c3ccccc3)C2=O)nc1N (centres undefined),-2.9,i,-8.1,-4.2,-0.8,10.9,8.8,nt,
COc1ccc(/C=C2/SC(=O)N(NS(=O)(=O)c3ccccc3)C2=S)cc1OC,10.5,nt,-2.5,-3.5,nt,-6.2,3.6,nt,
COc1ccc(C(=O)c2ccc(Cl)cc2Cl)cc1,4.7,i,0.6,-1.8,6.6,1.1,-1.6,nt,
Cc1c(Cl)cccc1NC(=S)N(CCCN1CCOCC1)Cc1ccco1,-4.7,i,-4.4,nt,13.5,-3.6,-3.2,-1.3,
O=C(N[C@H]1CCC(=O)N([C@H](CSc2ccc(Br)cc2)Cc2ccccc2)CC1)OCc1ccccc1,nt,nt,nt,-18.6,16.5,-6.9,-9.5,35.0,
Cc1nn(-c2cc(N3CCNCC3)ccc2[N+](=O)[O-])c(=O)c2ccccc12,-11.0,i,-10.8,-3.6,-13.0,-10.1,-3.5,4.7,
O=C1C(O)CCN1Cc1ccccc1 (centres undefined),nt,nt,nt,-9.1,nt,-3.4,5.4,13.3,
Cc1nc(/N=C(\N)NC(=O)c2ccccc2)nc2ccccc12,6.0,i,-6.8,1.4,-10.8,-3.8,-3.1,nt,
COC(=O)c1ccccc1NC(=O)CSc1nc2ccccc2c(=O)[nH]1,2.5,i,8.1,-2.9,-8.2,-4.8,-4.6,nt,
CCC(C)[C@H](NC(=O)N1CCCCCC1)C(=O)OC (some centres undefined),-5.4,i,-2.8,-12.3,-8.3,-2.8,-2.0,5.6,
CCc1ccccc1NC1=NCC(=O)N1C1CCCCC1,8.1,i,4.3,-8.5,-12.7,9.4,4.1,nt,
CSCCC1NC(=O)N(CC(=O)Nc2ccc(N3CCCCC3)cc2)C1=O (centres undefined),1.2,i,5.2,-13.4,-16.1,-4.8,-1.4,nt,

# Continued; it opens with the 2 that closed the last part.
SMILES,PABP FP inh,Rce1 inh,eIF4H FP inh,Yeast UUG start,CSC inhib,MT1-MMP act inh,MT1-MMP act inh RFP,Env fusion inh,others
CCc1ccccc1NC1=NCC(=O)N1C1CCCCC1,8.1,i,4.3,-8.5,-12.7,9.4,4.1,nt,
CSCCC1NC(=O)N(CC(=O)Nc2ccc(N3CCCCC3)cc2)C1=O (centres undefined),1.2,i,5.2,-13.4,-16.1,-4.8,-1.4,nt,
O=C(COc1ccc(Br)cc1CNCCCN1CCOCC1)Nc1ccccc1,-50.0,i,11.5,nt,-4.6,8.0,4.0,nt,
COc1ccc(C(=O)CSc2nnc(-c3cccs3)n2-c2ccccc2)cc1,-1.6,i,2.4,2.8,3.9,-2.2,-2.0,nt,
CCOc1nc(N2CCOCC2)nc(C)c1[N+](=O)[O-],-0.3,i,-5.5,nt,-2.5,1.1,3.1,-40.7,
Cc1cccc(C(=O)NNC(=S)NC(=O)c2ccccc2)c1,nt,i,nt,-32.8,24.7,1.7,-5.2,1.1,
Cc1ccc(NC(=O)CSc2nc3ccccc3c(=O)n2Cc2cccs2)cc1,-5.0,i,-5.8,-5.0,15.2,-1.0,-3.7,nt,
CCOc1ccc(S(=O)(=O)N(C)CC(=O)N2CCN(CC)CC2)cc1,-7.6,i,-5.0,-17.7,-7.0,0.8,2.0,-1.1,
Cc1ccc([N+](=O)[O-])cc1NC(=O)Cc1cccs1,-8.7,i,37.4,nt,-11.9,2.2,7.4,-20.8,
NS(=O)(=O)c1cccc(NC(=O)COC(=O)/C=C/c2nc3ccccc3s2)c1,nt,nt,nt,nt,-13.1,6.3,1.0,-8.8,
CCn1c(/C=C/c2c(C)[nH]c3ccccc23)nc2ccccc2c1=O,-1.1,i,36.5,-22.7,-16.3,-10.8,2.4,10.9,
Oc1ccc(C[C@H]2CNC(=S)N2CC2CCCN2C[C@H](Cc2ccc(O)cc2)N2C[C@H](Cc3ccc(O)cc3)N(CC3CCCCC3)C2=S)cc1 (some centres undefined),nt,nt,nt,-18.3,nt,-4.5,-11.7,91.0*,
O=C(C[n+]1cccc(CNC(=O)c2ccc(OC(F)F)cc2)c1)Nc1cc(C(F)(F)F)ccc1Cl,-11.0,i,14.7,nt,-10.0,-2.4,2.0,-1.9,
CCOC(=O)c1ccc(S(=O)(=O)NNc2ccc(C(F)(F)F)cn2)cc1,nt,nt,nt,-6.9,21.6,0.3,1.3,-4.8,
COc1ccc(N2C(=O)C(O)C2c2ccc(C)cc2)cc1 (centres undefined),1.7,i,-4.7,nt,7.5,0.6,2.6,nt,
CCOC(=O)Cn1c(=O)c(F)cn(Cc2ccc(OC)c([N+](=O)[O-])c2)c1=O,-10.4,i,-6.4,-2.5,nt,-2.9,2.3,-37.3,
CCN(CC(=O)NCc1ccc(F)cc1)C(=O)c1ccc(Cl)cc1,5.1,i,13.1,4.0,-16.0,0.4,0.8,-7.7,
CCCSc1ccc([C@@H]2[C@H]3C(=O)N(CC)C(=O)[C@H]3[C@]3(C(=O)OC)CCCN23)cc1OC,nt,nt,nt,14.2,-0.4,-2.7,-2.1,-12.9,
COc1cc(OC)cc(-c2c(C#Cc3ccsc3)c3cc(-c4ccc(CN5CCOCC5)cc4)ccc3n2C)c1,nt,nt,nt,-13.8,15.2,1.4,-0.5,-13.1,
CCn1c(C)nc2cc(C(=O)NNC(=S)Nc3ccc(F)cc3)ccc21,-4.5,i,-2.2,nt,0.8,-0.4,4.6,-47.9,
CCC1COC(c2cccn2Cc2ccc(Cl)cc2)=N1 (centres undefined),4.8,i,-5.3,-8.9,-0.9,-2.2,-4.6,18.2,
Cc1nc2cc(NC(=O)CSc3nc4c(C)cccc4cc3C#N)ccc2s1,-13.2,i,-9.8,-15.5,2.0,-103.1,1.8,-119.3,
O=c1c2sccc2nc(SCc2ccc([N+](=O)[O-])cc2)n1Cc1ccccn1,0.4,i,-0.8,nt,4.6,-5.9,-11.9,nt,
Cc1ccc(C2CCN(C(=O)Nc3ccc(F)cc3)C2)cc1 (centres undefined),?,i,-2.8,-14.0,-4.8,0.4,-0.9,-4.0,
CCOC(=O)NC(NC(=S)Nc1ccccc1[N+](=O)[O-])C(Cl)(Cl)Cl (centres undefined),8.9,i,0.7,-9.1,-17.6,8.4,0.7,-5.8,
Cc1ccc(C(=O)N2CCOCC2)c(F)c1F,3.5,i,-6.3,-4.0,12.6,0.0,1.9,3.3,
O=C(NNC(=O)C12CC3CC(CC(C3)C1)C2)c1ccccc1[N+](=O)[O-],7.2,i,2.4,-22.0,-6.3,-2.9,-5.4,1.5,
# Other structures follow.
SMILES,PABP FP inh,Rce1 inh,eIF4H FP inh,Yeast UUG start,CSC inhib,MT1-MMP act inh,MT1-MMP act inh RFP,Env fusion inh,others
CC(=O)NC(Cc1ccc(F)cc1)C(=O)NC1CCN(C(=O)Nc2cccc(C)c2)CC1 (centres undefined),9.7,i,-12.0,-6.6,-3.3,-2.4,-0.9,-2.0,
CCN(CC)C(=O)CSc1nc2c(sc(=S)n2-c2ccccc2)c(=O)n1-c1ccccc1OC,1.5,i,-7.4,-15.6,nt,-1.3,-2.4,-19.0,
COc1cccc(CNC(=O)c2ccc3c(c2)N(C)CCS3)c1OC,-12.9,i,-3.5,-0.6,-0.1,8.2,0.6,21.7,
CCOC(=O)C1(CCc2ccccc2)CCN(C2Cc3ccccc3C2)CC1,-3.9,i,3.0,-13.5,51.2,-4.2,-6.2,17.0,
Clc1ccc(C2Nc3cccc4cccc(c34)N2)cc1Cl,49.5*,i,55.2*,1.9,-1.7,-8.4,-2.4,5.4,eIF4H FP inh retest=85.9*;PABP FP inh retest=72.8*
CCOC(=O)C1CCCN(C(=O)c2ccc3ccccc3c2)CC1 (centres undefined),nt,nt,nt,-16.5,nt,-0.8,-1.5,-18.1,
CCOC(=O)C1=C(C)NC(C)=C(C(=O)OCC)C1C(=O)OCC(=O)NC,25.2,i,8.7,-9.4,-1.5,-0.1,2.9,12.4,
CC1=C(C(=O)NC2CCCC(C)C2C)C2(CCCCC2)OC1=O (centres undefined),-17.8,i,-1.8,11.8,-6.4,2.7,1.9,-7.3,
Cc1nc(N2CCOCC2)c2c(C)c(C(=O)Nc3ccc(F)cc3Cl)sc2n1,8.5,i,-2.9,-18.8,-9.9,-0.6,3.2,2.2,
Cc1ccc(F)cc1CNC(=O)C1CCC(=O)N(CCc2ccccc2)C1 (centres undefined),-1.7,i,0.5,-8.8,3.1,-0.8,2.7,2.0,
Cc1ccc(-c2noc(C3CCCN(C(=O)c4ccccc4)C3)n2)o1 (centres undefined),5.3,i,-3.2,9.3,-5.8,-1.7,1.5,-139.1,
CCOc1ccccc1N=NC1C(=O)N(C(N)=S)N=C1C (centres undefined),30.8,i,11.7,-7.0,-4.6,-13.3,-0.5,12.9,
CCC1=NC(c2ccccc2)N(O)C1(C)C (centres undefined),0.7,i,2.8,-20.5,-6.7,0.7,1.8,nt,
CC(C)CC(=O)N1CCN(Cc2ccccc2[N+](=O)[O-])CC1,8.6,nt,-0.3,nt,-8.4,3.6,2.9,8.7,
COc1ccc(Cl)cc1NC(=O)c1c(-c2ccccc2)noc1C,3.0,i,-2.4,-11.6,-15.0,-1.7,-1.9,nt,

# These rows are one share of the data, so the mix of outcomes need not match the whole.
